# KAT2A inh – qHTS Assay for Inhibitors of GCN5L2. Histone acetyltransferase KAT2A (Homo sapiens), Q92830. GCN5L2 HAT assay, ThioGlo1 CoA-SH fluorescence. Potency, µM (doses to about 58.9 µM), for inactives: top-dose activity change, negative = inhibition, usual class: inhibitors. 390,000 tested, 0.21% active
#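 Preincubate 20nM GCN5L2 with compound 15 min, RT → add 50uM ThioGlo1 + 75uM H3(1-25) + 70uM acetyl-CoA → read fluorescence 0 and 20 min. Primary qHTS; fluorescent artifacts likely.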
# FEN1 inh – qHTS Assay for the Inhibitors of Human Flap endonuclease 1 (FEN1); Potency, µM (top dose mostly 114 µM), for the others: top-dose activity change, negative = inhibition, usual class: inhibitors; 390,000 tested, 0.35% active; P39748; Recombinant FEN1 flap cleavage, fluorescence, 15 min; also: nearly all actives have a fitted effect of over 65% in size
# Target sequence (P39748 whole entry, looked up): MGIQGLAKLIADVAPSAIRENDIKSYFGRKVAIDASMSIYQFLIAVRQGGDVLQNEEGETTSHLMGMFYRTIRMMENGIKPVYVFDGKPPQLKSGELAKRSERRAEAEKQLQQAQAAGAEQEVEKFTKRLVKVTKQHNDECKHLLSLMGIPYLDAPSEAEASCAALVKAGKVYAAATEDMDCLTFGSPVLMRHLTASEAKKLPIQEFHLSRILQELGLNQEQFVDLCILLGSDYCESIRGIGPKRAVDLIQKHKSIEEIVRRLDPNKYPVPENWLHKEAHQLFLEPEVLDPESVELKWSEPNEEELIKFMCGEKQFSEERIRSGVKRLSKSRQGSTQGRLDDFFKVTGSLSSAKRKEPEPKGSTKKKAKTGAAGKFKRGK
#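 Nuclease activity of 10 nM FEN1 was measured after 15 min of room-temperature exposure to titrated compounds, by adding 50 nM flap substrate and reading plates at 0 and 15 min.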
# * = called active by the depositor; u = inconclusive; x = no result given; & = joins results of further samples; [ ] = dose if it differs, or a comment. Calls follow the shape of the dose curve; as a rule, active = well fitted curve in the direction sought with a large enough effect; inconclusive = small, poorly fitted or top-dose-only effect, or another doubt; inactive = no such curve, though single readings can be large; an effect the other way counts as inactive or inconclusive. % is scaled to controls: 0 for no effect and ±100 for the full control effect; potency is read from the fitted curve at half-maximal effect. The list is partial, and most or all hits are left out here.
# Values run as follows: KAT2A inh | FEN1 inh
- O=C(Nc1ncc(Cc2ccccc2Cl)s1)c1ccc([N+](=O)[O-])cc1
    3% | -5%
- COc1ccc2c(c1)CCc1c(C(=O)Nc3c(C)nn(Cc4ccccc4)c3C)noc1-2
    -1%&0% | 19%&-11%
- CCCCCC1CC(CC(=O)Nc2ccc([N+](=O)[O-])cc2)C(=O)O1 (stereo not drawn)
    -7% | -18%
- CC(C)n1cc(CN2CCN(C)C(CCO)C2)c2ccccc21 (stereo not drawn)
    -1% | 4%
- O=C(c1cc([N+](=O)[O-])ccc1N1CCOCC1)N1CCOCC1
    -5% | 19%
- CC1(CCc2ccc(O)cc2)NC(=O)NC1=O (stereo not drawn)
    -4%[0.501 µM] | 7%
- Cc1ccc(NC(=O)c2cc3c(CO)cnc(C)c3oc2=Nc2cccc(C(N)=O)c2)cc1
    1% | 16%
- COc1cc(/C=C/C(=O)OCC(=O)c2c(N)n(C)c(=O)n(C)c2=O)ccc1OCC#N
    0% | 4%
- Cc1cccc(CNc2ncnc3ccc(-c4c(C)noc4C)cc23)c1
    -10% | x
- CC(=O)Nc1cccc(NC(=O)CCCC2CCCCC2)c1
    -4% | -5%
- O=[N+]([O-])c1ccccc1/C=C/C=N/n1c(-c2ccco2)n[nH]c1=S
    -3% | -9%
- COc1ccc(Br)cc1/C=N/NC(=O)C(c1ccncc1)N1CCOCC1 (stereo not drawn)
    1% | 8%
- Cn1c(SCc2ccc(C(=O)Nc3nccs3)cc2)nnc1-c1ccccc1
    -14% | -4%
- CCOc1ccc(S(=O)(=O)NC(C)C(=O)NCc2ccccn2)cc1 (stereo not drawn)
    3% | -1%
- Cc1ccc(S(=O)(=O)N2CCN(CC(=O)Nc3ccc([N+](=O)[O-])cc3)CC2)cc1C
    -3% | -10%
- O=C(CSc1nc2c(cnn2-c2ccc(F)cc2)c(=O)[nH]1)Nc1nccs1
    1% | 6%
- COc1ccc(C2C(C(C)=O)=C(O)C(=O)N2C)c(OC)c1 (stereo not drawn)
    0% | 8%
- O=C(NCc1ccccc1)c1cccc(COc2ccccc2Cl)c1
    -2% | -4%
- CCN(CC(=O)NCc1ccc(Cl)cc1)C(=O)c1ccc(C#N)cc1
    -25% | 12%
- CCOC(=O)C1(Cc2ccccc2C(F)(F)F)CCN(C(C)COC)CC1 (stereo not drawn)
    -9% | 13%

# Pulled by compound from the entries so far, six records:
# Values run as follows: KAT2A inh | FEN1 inh
- O=C(Nc1ncc(Cc2ccccc2Cl)s1)c1ccc([N+](=O)[O-])cc1
    3% | -5%
- CCOc1ccc(S(=O)(=O)NC(C)C(=O)NCc2ccccn2)cc1 (stereo not drawn)
    3% | -1%
- COc1cc(/C=C/C(=O)OCC(=O)c2c(N)n(C)c(=O)n(C)c2=O)ccc1OCC#N
    0% | 4%
- O=C(CSc1nc2c(cnn2-c2ccc(F)cc2)c(=O)[nH]1)Nc1nccs1
    1% | 6%
- COc1ccc2c(c1)CCc1c(C(=O)Nc3c(C)nn(Cc4ccccc4)c3C)noc1-2
    -1%&0% | 19%&-11%
- CCOC(=O)C1(Cc2ccccc2C(F)(F)F)CCN(C(C)COC)CC1 (stereo not drawn)
    -9% | 13%

# Back to the main list; the five compounds before the break are reprinted first.
# Values run as follows: KAT2A inh | FEN1 inh
- O=C(CSc1nc2c(cnn2-c2ccc(F)cc2)c(=O)[nH]1)Nc1nccs1
    1% | 6%
- COc1ccc(C2C(C(C)=O)=C(O)C(=O)N2C)c(OC)c1 (stereo not drawn)
    0% | 8%
- O=C(NCc1ccccc1)c1cccc(COc2ccccc2Cl)c1
    -2% | -4%
- CCN(CC(=O)NCc1ccc(Cl)cc1)C(=O)c1ccc(C#N)cc1
    -25% | 12%
- CCOC(=O)C1(Cc2ccccc2C(F)(F)F)CCN(C(C)COC)CC1 (stereo not drawn)
    -9% | 13%
- O=c1[nH]c2ccc(NC(=S)NCc3ccccc3)cc2[nH]1
    -6% | -3%
- CCOc1ccc(CCNC(=O)C2CC(=O)N(c3ccccc3OCC)C2)cc1OCC (stereo not drawn)
    -5% | 5%
- COc1ccc(N2C(=O)/C(=C/c3ccc([N+](=O)[O-])cc3)N=C2C)cc1
    -6% | 1%
- C/C(CC(=O)NC12CC3CC(CC(C3)C1)C2)=N\NC(=O)c1ccc(F)cc1
    -6% | 1%
- Cn1c(Cn2cnc3ccccc32)nnc1SCc1ccccc1
    2% | -3%
- Cc1ccc(S(=O)(=O)N2CCOCC2)cc1NC(=O)CSc1nccn1C
    26% | 7%
- CC1CCCN(C(=O)c2ccc3c(c2)OCO3)C1 (stereo not drawn)
    -2% | 17%
- CCc1noc(C)c1C(=O)Nc1ccccc1N1CCOCC1
    -4% | -11%
- COc1ccc(C)cc1N(C(=O)CNC(=O)c1ccco1)C(C(=O)NC1CCCC1)c1cccnc1 (stereo not drawn)
    1% | -2%
- COc1ccc(C(=O)COC(=O)Cn2cnc3c2c(=O)n(C)c(=O)n3C)c(OC)c1
    -5% | -6%
- Cc1ccc(S(=O)(=O)N(C)c2ccc(C(=O)N3CCOCC3)cc2)cc1
    0% | -2%
- CC1CC(Nc2ccccc2)c2ccccc2N1C(=O)c1cccnc1 (stereo not drawn)
    -7% | -2%
- NC(N)=Nc1cc2ccccc2c2ccccc12
    -23% | x
- COCC(=O)N1CCC(Oc2ccc(C(=O)N3C[C@H]4CC[C@H]3C4)cc2)CC1
    -1% | 8%
- COc1ccc(CCn2c(S)nc3ccccc3c2=O)cc1
    -3% | -2%
- Cc1cccc(NC(=O)c2ccccc2OCC(=O)c2ccccc2)c1
    -1% | -17%
- Cc1ccc(-c2cc(-c3ccc4c(c3)OCO4)c(C#N)c(N)n2)o1
    u | -1%
- Cc1ccc(Cl)cc1NC(=S)N(CCCN1CCOCC1)Cc1ccccn1
    0% | 1%
- CC(NC(=O)COC(=O)C1=COCCO1)C12CC3CC(CC(C3)C1)C2 (stereo not drawn)
    -11% | 28%
- CC(C)(C)NC(=O)CSc1nnc(SCC(=O)NC(C)(C)C)s1
    -2% | 17%
- COc1ccc(Oc2ncc3nc(-c4ccc(F)cc4)c(=O)n(C)c3n2)cc1
    u | x
- Cc1cc2ccccc2n1CCC(=O)O
    0% | 7%
- Cn1c(=O)[nH]c(=O)c2c1nc(Br)n2CC(O)COc1ccc(Cl)cc1 (stereo not drawn)
    -1% | 49%[activator]
- CCOc1cc(N2CCOCC2)c(OCC)cc1NC(=O)c1nc2nccc(C)n2n1
    -4% | x
- CCC(=O)c1ccc(OCc2ccc(C(=O)OC)cc2)cc1
    0% | -7%
- O=C(O)C(Cc1c[nH]c2ccccc12)N1C(=O)C2C3c4ccccc4C(c4ccccc43)[C@@H]2C1=O (stereo partly drawn)
    -6% | -17%
- Cc1c(Cl)cccc1NC(=O)c1ccco1
    2% | 1%
- CCCN1CC(=O)N2Cc3[nH]c4ccccc4c3C[C@H]2C1=O
    -1% | -4%
- Cc1cc(C)n2nc(SCc3cccc(S(=O)(=O)N(C)C)c3)nc2n1
    -4% | 3%
- Clc1ccc(-c2ccnc(-n3cccc3)n2)s1
    -12% | 6%
- N#Cc1ccc2c(c1)C[C@]1(CCCCN3C(=O)c4ccccc4C3=O)Oc3cc(-c4ccccc4)oc(=O)c3[C@H]2O1
    -2%[12.7 µM] | x
- NS(=O)(=O)c1ccc(CCNC(=O)C(=O)c2cn(CC(=O)N3CCOCC3)c3ccccc23)cc1
    -3% | 22%
- CC(C)C(c1nnnn1C1CCCC1)N1CCC(C(N)=O)CC1 (stereo not drawn)
    -6% | 12%
- CC(C)(C)OC(=O)NCCc1nnc(SCc2ccc(Cl)cc2)o1
    2% | 9%
- COCCn1cnnc1SCC(=O)Nc1ccc(Br)cc1F
    -1% | 1%
- CCc1nc(N2CCN(C(=O)CCl)CC2)c2c3c(sc2n1)CC(C)CC3 (stereo not drawn)
    -1% | -5%
- O=C(c1ccccc1)N1CC(COc2ccccc2)OC(c2ccco2)O1 (stereo not drawn)
    -3% | -10%
- OCCNCc1cc(Br)ccc1OCc1ccc(Cl)cc1Cl
    0% | -7%
- CC(O)(CS(=O)(=O)Cc1ccccc1)C(=O)Nc1cccc(C(F)(F)F)c1 (stereo not drawn)
    -3% | 4%
- Cc1cccc(C)c1NC(=O)CN(C)C(=O)c1ccc2nc[nH]c2c1
    -5% | -2%
- CC1=CC(=C2C(=O)c3ccccc3C2=O)C=C(C)N1C
    u | -14%
- CC1CCc2nn(CC(=O)NCCN3CCOCC3)cc2C1 (stereo not drawn)
    -6% | 23%
- COc1cc(C(C(=O)NC2CCCCC2)N(CCN2CCOCC2)C(=O)C2COc3ccccc3O2)cc(OC)c1OC (stereo not drawn)
    -1% | -1%
- C#CC(C)(C)NC(=S)NC1CC2C=CC1C2 (stereo not drawn)
    -19% | 9%
- COc1ccc(C(C)=O)c(OC(=O)c2ccco2)c1
    -13% | 4%
- COC(=O)C1C(=O)C2=C(CC1C)NC(=O)CC2c1ccc(F)cc1 (stereo not drawn)
    -2% | 4%
- CCc1ccc(/C=N/N2CCN(c3ccccn3)CC2)cc1
    -4% | -9%
- CC(=O)Nc1ccc(NC(=O)c2cc(-c3ccccc3)nc3ccccc23)cc1
    -16% | 6%
- O=C(NCCCN1CCCC1=O)c1cncc(Br)c1
    -11% | -3%
- CC(=O)N1c2ccc(S(=O)(=O)N3CCCCC3)cc2CC1C(=O)Nc1ccccc1C(F)(F)F (stereo not drawn)
    -28% | -13%
- CSc1nc(-c2ccccc2)nc(N2CCN(C)CC2)c1C(C)=O
    -2% | -7%
- NC(=O)c1ccc(NC(=O)COC(=O)c2c3c(nc4ccccc24)/C(=C\c2cccs2)CCC3)cc1
    -7% | -19%
- COc1ccc2c(c1)C(=O)N1[C@H]3c4cc(Br)ccc4OC[C@@H]3[C@H](c3ccccc3)[C@]1(C)C(=O)N2
    -3% | -9%
- O=C(CC(=O)Nc1cccc(Cl)c1)N/N=C\c1ccccc1
    2% | u
- CCOc1ccc(C2C(C(=O)c3ccco3)=C(O)C(=O)N2CCN(C)C)cc1 (stereo not drawn)
    1% | x
- CSc1nc(-c2ccc(Cl)cc2)nc(N)c1C#N
    -1% | 1%
- N/C(=N\OC(=O)CCCc1ccccc1)c1cccnc1
    -3% | 7%
- O=C(c1cnccn1)N1CCC2(CC1)CN(c1ccccn1)C2
    -7% | x
- CCOc1ccccc1C1C(C#N)=C(N)Oc2n[nH]c(CC)c21 (stereo not drawn)
    -1% | -20%
- O=C(CSc1nc2ccccc2s1)NCc1ccc2c(c1)OCO2
    0% | 0%

# Exported as labelled records: three of the compounds above.
molecule: Cc1cccc(CNc2ncnc3ccc(-c4c(C)noc4C)cc23)c1
  KAT2A inh: -10%	FEN1 inh: x

molecule: CC(=O)Nc1cccc(NC(=O)CCCC2CCCCC2)c1
  KAT2A inh: -4%	FEN1 inh: -5%

molecule: O=[N+]([O-])c1ccccc1/C=C/C=N/n1c(-c2ccco2)n[nH]c1=S
  KAT2A inh: -3%	FEN1 inh: -9%

# (further entries)
# Values run as follows: KAT2A inh | FEN1 inh
- COc1cc(C(=O)NNC(=O)c2cc(=O)[nH]c3ccccc23)cc(OC)c1OC
    -1% | -4%
- COc1ccccc1N1CCN(C2CCCN(C(=O)c3ccoc3)C2)CC1 (stereo not drawn)
    -6% | 11%
- CC(Sc1nnc2ccccn12)C(=O)NCc1ccc2c(c1)OCO2 (stereo not drawn)
    -6% | 0%
- Nc1ccc(C(=O)OC2CCOC2=O)cc1[N+](=O)[O-] (stereo not drawn)
    -5% | -2%
- COc1cc(CC(NC(C)=O)C(=O)NC2CCN(C(=O)Nc3ccc(C)cc3)CC2)cc(OC)c1 (stereo not drawn)
    0% | 6%
- Cc1ccc(C(=O)Cn2cnc3ccccc3c2=O)cc1C
    x | 2%
- Cc1onc(-c2c(Cl)cccc2Cl)c1C(N)=O
    -9% | -4%
- O=C(Nc1ccc2c(c1)CCC2)c1ccc(Cl)nc1
    -8% | -13%
- O=C1CSC(c2ccccc2)N1Nc1nc(N2CCOCC2)nc(N2CCOCC2)n1 (stereo not drawn)
    -24% | -5%
- O=C1NC(CCc2ccccc2)C(=O)N1CCOc1ccccc1 (stereo not drawn)
    -8% | -6%
- O=C(Nc1ccnn1C1CCN(CCCc2ccccc2)CC1)c1ccccc1Cl
    3% | -4%
- CCc1nnc(NC(=O)CSc2nc(-c3ccc(OC)cc3)ns2)s1
    -2% | 2%
- COc1ccc2nc(/C=N/NC(=O)[C@@H]3CCCN3C(=O)OC(C)(C)C)ccc2c1
    -6% | -1%
- CC(=O)N/C(=N\OCc1ccc(Br)cc1)c1nonc1NC(C)=O
    -7% | -2%
- CC(C)NC(=O)C1CCN(C(=O)c2ccc(-c3ccccc3)cc2)CC1
    x | 0%
- CC(C)(C)c1ccc(-c2ncccc2O)cc1
    -1% | -7%
- Cc1cc(C)cc(NS(=O)(=O)c2ccc3[nH]c(=O)ccc3c2)c1
    0% | 15%
- CC1CCCC(C)N1C(=O)COC(=O)CNC(=O)c1sc2ccccc2c1Cl (stereo not drawn)
    -2% | 2%
- O=C(O)C[C@@H](O)C(=O)O
    1% | -8%
- O=C(c1ccc(Cl)cc1)c1ccc(OCC(O)CN2CCOCC2)cc1 (stereo not drawn)
    3% | 1%
- COc1ccc(NC(=O)c2ccccc2-c2ccccc2)c(C)c1
    -8% | -8%
